Screening data (PubChem)
Cruzain inh noDet – inhibitors of Trypanosoma cruzi cruzain without detergent; P25779; purified cruzain, Z-FR-AMC fluorescence, no detergent; Potency, µM, inactives show max response, negative = inhibition, usual class: inhibitors; actives 2.3% (n = 200,000); AID 1476;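 note: plate controls were enzyme without inhibitor for no effect and buffer without enzyme for full effect; nearly all actives have a fitted effect of over 40% in size; top concentration of the series not given in the record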
Target sequence (P25779 123-467 limits assumed): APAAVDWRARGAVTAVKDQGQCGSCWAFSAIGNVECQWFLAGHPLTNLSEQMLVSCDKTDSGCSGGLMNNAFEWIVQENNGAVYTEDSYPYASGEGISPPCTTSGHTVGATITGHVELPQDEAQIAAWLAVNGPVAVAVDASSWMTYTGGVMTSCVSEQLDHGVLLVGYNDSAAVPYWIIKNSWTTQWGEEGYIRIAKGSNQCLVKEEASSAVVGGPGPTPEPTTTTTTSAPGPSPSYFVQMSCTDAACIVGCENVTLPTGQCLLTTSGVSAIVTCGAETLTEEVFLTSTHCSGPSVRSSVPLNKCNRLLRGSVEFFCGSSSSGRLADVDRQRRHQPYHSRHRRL
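Detergent-free condition (0.00005% Triton X-100) in acetate buffer pH 5.5 with DTT. 1.5 nM enzyme and compound were pre-mixed 15 min, then 2 uM Z-FR-AMC substrate added; reaction progress from fluorescence change between first and third reads (60 s).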
NS1 inh – inhibitors of influenza NS1 protein function | Potency, µM (highest dose often 46.1 µM), for the others: top-dose activity, positive = more growth | actives 0.4% (n = 270,000) | S. cerevisiae slowed by influenza A NS1, growth recovery by OD600 | AID 2326; active means well fitted rising curve with a large enough effect; inconclusive means small, poorly fitted or top-dose-only effect; inactive means no such curve, though single readings can be large or run the other way; note: nearly all actives have a fitted effect of over 50% in size
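Recovery from NS1-induced slow growth read by OD600 in budding yeast switched to galactose assay medium (pH 6.0, -URA) at 1:100 dilution. Compound 23 nl per well; the matching strain lacking NS1 serves as control.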
Cruzain inh Det – inhibitors of Trypanosoma cruzi cruzain with detergent | P25779 | purified cruzain, Z-FR-AMC fluorescence, 0.01% Triton | Potency, µM, without a hit: max response, negative = inhibition, hits mostly inhibitors | actives 0.43% (n = 200,000) | AID 1478;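 note: plate controls were neutral wells for no effect and buffer without enzyme for full effect; nearly all actives have a fitted effect of over 40% in size; top concentration of the series not given in the record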
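Enzyme 1.5 nM, Z-FR-AMC 2 uM, NaOAc 100 mM pH 5.5, DTT 5 mM, Triton X-100 0.01%; 15 min RT compound preincubation; kinetic ex360/em450, 60 s delta.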
MARV entry inh – Marburg virus entry inhibition; actives 1.8% (n = 300,000); Potency, µM (doses to about 37.8 µM), without a hit: top-dose activity change, negative = inhibition, actives largely listed as inhibitors; AID 540276; Marburg virus pseudotyped entry inhibition, cell reporter; control for the full effect not named in the record; about a third of the inactives were read at about 46 µM; active = well fitted inhibition curve with a large enough effect; inconclusive = small, poorly fitted or top-dose-only effect, or effect the other way; inactive = flat fitted curve, though single readings scatter; tested in HEK293 cells; about a fifth of its hits are not listed in these tables; note: % is set by controls: 0 for no effect and ±100 for the full control effect; luciferase read-out
SARS PLpro yeast – SARS-CoV PLP inhibition in yeast; S. cerevisiae expressing SARS-CoV PLpro, growth rescue; control for the full effect not named in the record; Potency, µM (highest dose often 32.9 µM), for inactives: at the highest dose activity, positive = growth rescue; actives 0.19% (n = 330,000); active means well fitted rising curve with a large enough effect; inconclusive means small, poorly fitted or top-dose-only effect; inactive means no such curve, though single readings can be large or run the other way; note: 0% is about no effect; nearly all actives have a fitted effect of over 55% in size; growth read by luminescence after 48 h
2A StopGo – FMDV 2A StopGo reporter, luciferase signal. human cells with a luciferase reporter of 2A StopGo recoding; control for the full effect not named in the record. Potency, µM (top dose mostly 57.9 µM), for inactives: at the highest dose signal change, negative = less light. actives 1.2% (n = 410,000). AID 1159524; active = well fitted falling curve with a large enough effect; inconclusive = small, poorly fitted or top-dose-only effect; inactive = no such curve, though single readings can be large or run the other way; tested in HEK293T cells; note: % is set by controls: 0 for no effect and ±100 for the full control effect; nearly all actives have a fitted effect of over 45% in size; luciferase light after 4 h
RE007 growth inh – less growth of the S. pombe RE007 Vpr strain | S. pombe RE007 Vpr strain, BacTiter-Glo ATP luminescence, 24 h; control for the full effect not named in the record | Potency, µM (doses to about 92.2 µM), inactives show top-dose activity change, negative = less growth | actives 0.21% (n = 360,000) | AID 651644; active = well fitted falling curve with a large enough effect; inconclusive = small, poorly fitted or top-dose-only effect; inactive = no such curve, though single readings can be large or run the other way;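 note: % is set by controls: 0 for no effect and ±100 for the full control effect; nearly all actives have a fitted effect of over 50% in size; the assay follows cell death caused by Vpr and the record does not say whether a fall means rescue or toxicity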
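Fission yeast RE007 carrying one integrated HIV-1 vpr copy, seeded at OD 0.01 in PMG+AL medium with 23 nL pinned compound. Grown 24 h at 30 degrees; viability read by BacTiter-Glo luminescence after 5 min.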
LASV entry inh – inhibitors of Lassa virus binding or cell entry | Lassa virus pseudotype entry inhibition, cell reporter; control for the full effect not named in the record | Potency, µM (titrated, usually from 37.9 µM), for inactives: top-dose activity change, negative = inhibition, actives largely listed as inhibitors | actives 1.2% (n = 300,000); active means well fitted inhibition curve with a large enough effect; inconclusive means small, poorly fitted or top-dose-only effect, or effect the other way; inactive means flat fitted curve, though single readings scatter; tested in HEK293 cells; note: % is set by controls: 0 for no effect and ±100 for the full control effect; nearly all actives have a fitted effect of over 50% in size; luciferase read-out
Starred values were filed as active, the others as inactive; ? = inconclusive; . = not tested or not shown; & = joins results of further samples; [ ] = dose if it differs, or a comment. Unless noted, calls come from the whole dose curve; as a rule, active = well fitted curve in the direction sought with a large enough effect; inconclusive = small, poorly fitted or top-dose-only effect, or another doubt; inactive = no such curve, though single readings can be large; an effect the other way counts as inactive or inconclusive. Potency is the fitted concentration of half-maximal effect.

SMILES | Cruzain inh noDet | NS1 inh | Cruzain inh Det | MARV entry inh | SARS PLpro yeast | 2A StopGo | RE007 growth inh | LASV entry inh
CCOC(=O)c1sc(NC(=O)CSc2nc3c(c(-c4ccc(OC)cc4)c2C#N)CCCC3)c(C#N)c1C | 3.2µM* | -4% | 9.7% | 24%[46.1 µM] | 0% | 3% | 25% | -9%
CCCCc1nn2c(=O)cc(CN(CC)c3ccccc3)nc2s1 | -8% | . | -1.4% | . | . | -4% | . | 5%[46.1 µM]
O=S(=O)(c1ccccc1)N1CCC2(CC1)CO2 | . | -5% | . | -20%[46.1 µM] | 1% | 15% | -10% | 2%[46.1 µM]
Nc1cc(N)nc(SCc2ccccc2)n1 | -9% | -13% | -0.4% | ? | -5% | 2% | -3% | ?
CCc1nnc(NC(=O)CC23CC4CC(CC(Br)(C4)C2)C3)s1 | . | 6% | . | 29%[46.1 µM] | 1% | -6% | -8% | .
Cc1nn(CCCC(=O)NCc2ccccc2)c(=O)c2nn(-c3ccccc3)c(C)c12 | -2% | -7% | -0.9% | . | 2% | 0%&10% | -9% | 0%[46.1 µM]
CCN(CC)C(=S)Oc1ccc(Cl)cc1Cl | . | 3% | . | 3%[46.1 µM] | 0% | -14% | 10% | 3%[46.1 µM]
Cc1nc(SCC(=O)NCc2ccco2)c2c(C)c(C)sc2n1 | -1% | -12% | 0.4% | 15µM* | -5% | -2% | 12% | ?
CSc1ccc(C(=S)N2CCCCCC2)cc1 | . | -52% | . | . | ? | 10% | -5% | .
COC(=O)c1nnn(CC(=O)Nc2cc(F)ccc2F)c1C(=O)OC | 19% | . | 0.7% | 5%[46.1 µM] | . | -12% | . | -1%[46.1 µM]
Cc1ccc(C2CC2C(=O)NN)cc1 (stereo unspecified) | 1% | 12% | 8.9% | -1% | 0% | -5% | -8% | -70%[14.3 µM]
COC(=O)C(C)Sc1nc2c(cnn2-c2ccccc2)c(=O)[nH]1 (stereo unspecified) | -3% | -5% | -2.5% | . | 10% | -13% | 4% | .
Cc1nc2ccccc2n1C(=O)c1cc(-c2ccc(Br)cc2)nc2ccccc12 | -2% | -81% | -7.9% | 11%[46.1 µM] | 0% | -10% | 2% | 13%
COc1ccc(N(CC(=O)Nc2ccc3c(c2)OCCO3)S(=O)(=O)c2c(C)nn(C)c2C)cc1 | ? | -49% | 0.7% | -8% | -12% | 0% | 0% | .
COc1ccc(OCc2cc(C(=O)NC(C)Cn3cncn3)no2)c(Cl)c1 (stereo unspecified) | . | -7% | . | ? | 3% | 24% | 7% | -36%
Cc1ccc(/C=[N+](/[O-])C2SC(=S)N(C)C2(C)C)cc1 (stereo unspecified) | -1% | 5% | 2.2% | 8% | 8% | -18% | -8% | 4%
O=S(=O)(O/N=C1\CCCc2ccccc21)c1ccccc1 | -1% | -1% | 4.3% | -3% | 4% | 1% | -5% | -3%
Cc1nonc1C1CCCN1Cc1nc(-c2ccc(F)cc2F)oc1C (stereo unspecified) | . | -1% | . | ? | -1% | -7% | -4% | -29%[46.1 µM]
Cc1ccc(-c2csc3ncnc(OCC(=O)NC(=O)NCc4ccco4)c23)cc1 | 22% | -16% | -14% | 21µM* | -7% | ? | 4% | ?
Cc1ccc(C)c(-n2c(-c3ccc(Br)cc3)csc2=NC(=O)c2ccccc2F)c1 | . | 29% | . | 1.3µM* | -3% | -22% | 6% | ?
c1ccc(-n2ncc3c(N4CCN(c5ccccn5)CC4)nc(N4CCOCC4)nc32)cc1 | -2% | 2% | 0.9% | -1% | 10% | . | . | .
CNC(=O)COC(=O)c1cccc(S(=O)(=O)N2CCN(c3ccc(F)cc3)CC2)c1 | . | 1% | . | . | 0% | -16% | -10% | .
N#CCCN(Cc1cccnc1)C(=O)Nc1ccccc1 | 3% | 14% | 8.9% | -4% | 7% | 23% | 1% | 23%
COc1ccc(C2c3cc(OC)c(OC)cc3CCN2S(C)(=O)=O)cc1OC (stereo unspecified) | . | -1% | . | 3%[46.1 µM] | 0% | 15% | -12% | 13%[46.1 µM]
N#Cc1c(NC(=O)C2CCCO2)sc2c1CCCCCC2 (stereo unspecified) | -9% | -15% | -6.5% | ? | -9% | 39%[activator] | -1% | -5%
c1cncc(N=c2scc(-c3cccc4ccccc34)n2CCCn2ccnc2)c1 | ? | -3% | -8.0% | ? | 8% | ? | 22% | ?
Cc1nccn1CCOc1ccccc1Cl | . | ? | . | . | 5% | -9% | -21% | .
CCC(CC)C(=O)NC1CCSC1=O (stereo unspecified) | 9% | -4% | 3.9% | -1% | -5% | 4% | 13% | 9%
CCN(CC)c1nc(-c2ccccc2)nc2c1sc(=S)n2CC | . | . | . | -15% | -7% | -12% | 16% | 5%
COc1cccc(CNCCNC(=O)c2nonc2N)c1 | 4%&0% | -8% | -1.4%&3.4% | -7%[46.1 µM] | 3% | 5%&-16% | 12% | -5%[46.1 µM]
Cc1cccc(CN2CCc3c(OCC(=O)NCc4ccco4)cccc3C2=O)c1 | 6% | -21% | -8.2% | 9% | -3% | -6% | 1% | ?
Cc1ccc(S(=O)(=O)N2CCC3(CC2)OCCO3)cc1 | . | 8% | . | -10%[46.1 µM] | 5% | -15% | 11% | 27%[46.1 µM]
COc1ccc(OC)c(Nc2ncnc3c2cnn3-c2cccc(Cl)c2)c1 | -13% | . | -3.1% | . | . | -27% | . | 23%[46.1 µM]
C=CCNC(=S)Nc1ccc(Cl)cc1 | . | -1% | . | 12%[46.1 µM] | 15% | 19% | 5% | -12%
Oc1c(CN2CCCCC2)ccc2cccnc12 | . | . | . | ? | . | -26% | -16% | -15%[46.1 µM]
CC(=O)c1ccc(NC(=O)c2ccc(N3CCCC3=O)cc2)cc1 | . | . | . | -10%[46.1 µM] | -1% | 0% | 1% | 3%
CCc1ccc2[nH]c(=O)c(C(c3nnnn3Cc3ccco3)N3CCC(C)CC3)cc2c1 (stereo unspecified) | 1% | 3% | -6.2% | ? | -1% | 19% | 7% | -2%
O=C1c2cccc(OCc3ccc(F)cc3)c2CCN1Cc1ccc(F)cc1 | -2% | -5% | -7.5% | ? | -25% | ? | 3% | ?
Cc1ncc2c(n1)NC(=O)NC2 | . | . | . | -12%[46.1 µM] | . | -7% | 10% | 0%[46.1 µM]
COc1ccc(C(=O)C2CCCN(C(=O)C3CCOCC3)C2)c(C)c1 (stereo unspecified) | . | 3% | . | . | -1% | -13% | -1% | .
COc1ccccc1-n1cc([C@@H]2C[C@H]3CN(c4ccccc4)C(=O)[C@]34CCCN24)cn1 | . | 4% | . | 10µM* | -2% | -7% | 10% | ?
CCOC(=O)c1c2c([nH]c(=S)c1C#N)CCCC2 | . | 8% | . | 2% | -2% | -14% | 15% | ?
CC1(C)Cc2nc3oc4c(=S)nc[nH]c4c3cc2CO1 | -8% | 0% | -0.9% | ? | -7% | 24% | -14% | 19%
CCN(C(=O)c1cccc(S(=O)(=O)N(C)C)c1)C12CC3CC(CC(C3)C1)C2 | . | -6% | . | 1%[46.1 µM] | 0% | ? | -4% | ?
O=C(NC(=S)N1CCN(c2ccc(Cl)cc2[N+](=O)[O-])CC1)c1cccs1 | ? | ? | -9.6% | ? | -55% | 1% | -9% | ?
Cc1cccc(NC(=O)Nc2cccc(C)n2)n1 | 0% | -7% | 1.7% | 2%[46.1 µM] | -3% | 46%[activator] | -11% | 22%
Cc1ccc(C(=O)C2=C(O)C(=O)N(Cc3ccco3)C2c2ccc(N(C)C)cc2)o1 (stereo unspecified) | . | ? | . | . | 5% | 16% | 4% | .
CCOc1ccccc1NC(=S)N1C2CCC1CC(NC(=O)NC13CC4CC(CC(C4)C1)C3)C2 (stereo unspecified) | -5% | 19% | -8.9% | ? | -15% | -22% | 3% | 2%
Cc1cccc(/C=N\Nc2nnc(-c3ccccc3)c(=O)[nH]2)c1 | -22% | -5% | 0.6% | 0% | -9% | -9% | -1% | -13%
CCc1c(C)nc(SCC(=O)Nc2nc(-c3ccc(OC)cc3)cs2)[nH]c1=O | . | 3% | . | 8%[46.1 µM] | 0% | -9% | 2% | -12%
Carrying on:
SMILES | Cruzain inh noDet | NS1 inh | Cruzain inh Det | MARV entry inh | SARS PLpro yeast | 2A StopGo | RE007 growth inh | LASV entry inh
O=C(CCCOc1ccccc1)N1CCN(S(=O)(=O)c2cccs2)CC1 | 14% | 5% | 1.5% | -17%[46.1 µM] | -16% | ? | 2% | 4%
Cc1ccccc1CCNC(=O)Cn1nc(C)c2c(C)n(-c3ccccc3)nc2c1=O | . | 17% | . | . | 8% | -17% | -9% | .
CC(C)[C@H](NC(=O)N1CCn2c1nc1ccccc12)C(=O)NCc1ccc(F)cc1 | . | -8% | . | ? | -5% | -11% | -12% | ?
Cc1ccc(NC(=O)C(c2ccccc2)C2CCCC2)cc1 (stereo unspecified) | 7% | -11% | -8.2% | -29% | -19% | -27% | 10% | 2%
COc1ccccc1NC(=S)NNC(=O)c1ccccc1Br | 1% | -16% | -1.1% | -23% | 11% | 41%[activator] | -1% | -16%
COc1cc(C(=O)NCc2ccc(C(=O)NCC(OC)OC)cc2)cc(OC)c1OC | . | . | . | -1%[46.1 µM] | -2% | -14% | -3% | 13%
O=C(COC(=O)c1ccc2c(c1)OCCO2)Nc1cc(Cl)ccc1Cl | 10% | 11% | 2.1% | -5%[46.1 µM] | 20% | -22% | -1% | 3%
CCOC(=O)c1cccc(NC(=O)[C@H](CSCc2ccccc2)N2Cc3ccccc3C2=O)c1 | ? | . | -0.9% | -29%[46.1 µM] | . | 43%[activator] | . | -25%[46.1 µM]
COc1ccc(NC2CCCN(C(=O)c3ccc(CSC)o3)C2)cc1OC (stereo unspecified) | . | 8% | . | 17%[46.1 µM] | 1% | -12% | -4% | 4%[46.1 µM]
Cc1ccc(F)cc1NC(=O)Cc1nn(C)c(=O)c2ccccc12 | 0% | -7% | -0.3% | ? | 8% | ? | 47% | -18%
CCOC(=O)c1c(C)[nH]c(C)c1S(=O)(=O)NCC1CCN(Cc2ccc(C)cc2)CC1 | . | -11% | . | . | 2% | 5% | -5% | .
COC1=CC(=O)c2c(ccc3ncnc(N)c23)C1=O | . | . | . | ? | . | 2.5µM* | -22% | ?
